# Screening results (PubChem BioAssay)
# SARS PLP yeast – qHTS of Yeast-based Assay for SARS-CoV PLP. S. cerevisiae expressing SARS-CoV PLpro, growth rescue; control for the full effect not named in the record. Potency, µM (series often up to 32.9 µM), without a hit: at the top dose activity, positive = growth rescue. actives 0.19% (n = 330,000); further: 0% is about no effect; nearly all actives have a fitted effect of over 55% in size; growth read by luminescence after 48 h
# 2A StopGo – High Throughput Screening for Foot and Mouth Disease Virus Antivirals | human cells with a luciferase reporter of 2A StopGo recoding; control for the full effect not named in the record | Potency, µM (highest dose often 57.9 µM), without a hit: top-dose signal change, negative = less light | actives 1.2% (n = 410,000); active = well fitted falling curve with a large enough effect; inconclusive = small, poorly fitted or top-dose-only effect; inactive = no such curve, though single readings can be large or run the other way; tested in HEK293T cells; further: on the % scale 0 is the no-effect control and ±100 the full control effect; nearly all actives have a fitted effect of over 45% in size; luciferase light after 4 h
# Cruzain Triton – qHTS Assay for Promiscuous and Specific Inhibitors of Cruzain (with detergent). purified cruzain, Z-FR-AMC fluorescence, 0.01% Triton. Cruzipain (Trypanosoma cruzi), P25779. Potency, µM, inactives show max response, negative = inhibition, usual class: inhibitors. AID 1478, 2009. actives 0.43% (n = 200,000); active means well fitted curve in the direction sought with a large enough effect; inconclusive means small, poorly fitted or top-dose-only effect, or another doubt; inactive means no such curve, though single readings can be large; an effect the other way counts as inactive or inconclusive;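 further: plate controls were neutral wells for no effect and buffer without enzyme for full effect; nearly all actives have a fitted effect of over 40% in size; top concentration of the series not given in the record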
# Target sequence (P25779 123-467 limits assumed): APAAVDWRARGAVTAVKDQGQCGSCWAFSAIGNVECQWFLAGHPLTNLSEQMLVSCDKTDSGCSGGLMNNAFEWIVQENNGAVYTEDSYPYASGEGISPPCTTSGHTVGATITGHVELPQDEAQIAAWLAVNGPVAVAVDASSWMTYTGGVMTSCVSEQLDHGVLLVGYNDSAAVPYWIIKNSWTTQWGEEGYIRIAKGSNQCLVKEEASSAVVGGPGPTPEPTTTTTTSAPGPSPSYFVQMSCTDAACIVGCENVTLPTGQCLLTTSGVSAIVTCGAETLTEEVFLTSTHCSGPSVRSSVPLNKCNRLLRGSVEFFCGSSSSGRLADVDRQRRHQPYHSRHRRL
#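 In this qHTS format, compounds are incubated with 1.5 nM cruzain for 15 min at room temperature before 2 uM Z-FR-AMC is added. Release of AMC is followed at 360/450 nm, and progress is taken as the 60 s fluorescence difference.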
# MARV entry inh – qHTS for inhibitors of binding or entry into cells for Marburg Virus. Potency, µM (titrated, usually from 37.8 µM), inactives show at the top dose activity change, negative = inhibition, actives largely listed as inhibitors. Marburg virus pseudotyped entry inhibition, cell reporter; control for the full effect not named in the record; about a third of the inactives were read at about 46 µM. AID 540276, 2011. actives 1.8% (n = 300,000); active = well fitted inhibition curve with a large enough effect; inconclusive = small, poorly fitted or top-dose-only effect, or effect the other way; inactive = flat fitted curve, though single readings scatter; tested in HEK293 cells; about a fifth of its hits are not listed in these tables; further: on the % scale 0 is the no-effect control and ±100 the full control effect; luciferase read-out
# NS1 inh – qHTS Assay for Inhibitors of Influenza NS1 Protein Function; AID 2326, 2010; actives 0.4% (n = 270,000); Potency, µM (series often up to 46.1 µM), without a hit: at the top dose activity, positive = more growth; S. cerevisiae slowed by influenza A NS1, growth recovery by OD600; further: actives are rising curves; nearly all actives have a fitted effect of over 50% in size
#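 In this qHTS, NS1 from influenza A is expressed in budding yeast, where it slows growth. Cells are switched from glucose to 2% galactose medium (pH 6.0, -URA), treated with compound, and growth recovery is read at OD600.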
# LASV entry inh – qHTS for Inhibitors of binding or entry into cells for Lassa Virus; Potency, µM (top dose mostly 37.9 µM), inactives show at the top dose activity change, negative = inhibition, most hits filed as inhibitors; actives 1.2% (n = 300,000); Lassa virus pseudotype entry inhibition, cell reporter; control for the full effect not named in the record; active means well fitted inhibition curve with a large enough effect; inconclusive means small, poorly fitted or top-dose-only effect, or effect the other way; inactive means flat fitted curve, though single readings scatter; tested in HEK293 cells; further: on the % scale 0 is the no-effect control and ±100 the full control effect; nearly all actives have a fitted effect of over 50% in size; luciferase read-out
# Cruzain inh noDet – qHTS Assay for Promiscuous and Specific Inhibitors of Cruzain (without detergent) | Potency, µM, for the others: max response, negative = inhibition, actives largely listed as inhibitors | actives 2.3% (n = 200,000) | Cruzipain (Trypanosoma cruzi), P25779 | purified cruzain, Z-FR-AMC fluorescence, no detergent; active means well fitted curve in the direction sought with a large enough effect; inconclusive means small, poorly fitted or top-dose-only effect, or another doubt; inactive means no such curve, though single readings can be large; an effect the other way counts as inactive or inconclusive;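 further: plate controls were enzyme without inhibitor for no effect and buffer without enzyme for full effect; nearly all actives have a fitted effect of over 40% in size; top concentration of the series not given in the record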
#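 Purified cruzain at 1.5 nM, pre-incubated 15 min with compound at room temperature in 100 mM sodium acetate pH 5.5, 5 mM DTT, 0.00005% Triton X-100. Reaction started with 2 uM Z-FR-AMC; AMC fluorescence increase over 60 s gives rate.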
# RE007 growth inh – qHTS Assay for Inhibitors of the HIV-1 protein Vpr; actives 0.21% (n = 360,000); Potency, µM (doses to about 92.2 µM), for inactives: at the top dose activity change, negative = less growth; AID 651644, 2012; S. pombe RE007 Vpr strain, BacTiter-Glo ATP luminescence, 24 h; control for the full effect not named in the record; active = well fitted falling curve with a large enough effect; inconclusive = small, poorly fitted or top-dose-only effect; inactive = no such curve, though single readings can be large or run the other way;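 further: on the % scale 0 is the no-effect control and ±100 the full control effect; nearly all actives have a fitted effect of over 50% in size; the assay follows cell death caused by Vpr and the record does not say whether a fall means rescue or toxicity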
#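 Fission yeast strain RE007, carrying one chromosomally integrated HIV-1 vpr copy, was seeded at OD 0.01 in PMG+AL medium with 23 nL pinned compound. After 24 h at 30 °C and 99% humidity, viability was read by BacTiter-Glo luminescence.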
# * = called active by the depositor; ? = inconclusive; nt = not tested or not shown; & = joins results of further samples; [ ] = dose if it differs, or a comment. Unless noted, the call rests on the fitted dose curve; in most records, active means well fitted rising curve with a large enough effect; inconclusive means small, poorly fitted or top-dose-only effect; inactive means no such curve, though single readings can be large or run the other way. Potency means the concentration at half of the fitted maximal effect. An unsorted share of the library; overall some 4.7% were active at least once.
# Each structure is followed by: SARS PLP yeast | 2A StopGo | Cruzain Triton | MARV entry inh | NS1 inh | LASV entry inh | Cruzain inh noDet | RE007 growth inh
- O=C(COc1cc(Cl)c(Cl)cc1Cl)NCCc1ccccn1
→ -3% | 2% | nt | -7%[46.1 µM] | -5% | nt | nt | 2%
- c1ccc(N2C3C4CC(C5CCCC54)C32)cc1 (stereo unspecified)
→ nt | -1% | nt | 13%[46.1 µM] | nt | 0%[46.1 µM] | nt | -13%
- Cc1ccc(OC(C)C(=O)Nc2ccc3c(c2)n(C)c(=O)n3C)c(C)c1 (stereo unspecified)
→ 5% | -12% | nt | nt | 6% | nt | nt | -15%
- Cc1cc(NC(=O)CN2C(=O)c3ccccc3C2=O)no1
→ 0% | -11% | nt | -10% | -1% | 14% | nt | 32%
- O=C(NCCc1ccccc1)c1ccc(Nc2nc3ccccc3n3nnnc23)cc1
→ nt | -3% | -0.5% | -3%[46.1 µM] | nt | 15%[46.1 µM] | 7% | nt
- CC(NC(=O)COC(=O)c1cc([N+](=O)[O-])ccc1N1CCOCC1)c1ccccc1 (stereo unspecified)
→ -1% | -23% | nt | -22% | 7% | -1% | nt | -13%
- O=C(O)CC/C(=N\NC(=O)c1ccccc1Br)c1ccccc1
→ 20% | 5% | -0.1% | ? | -3% | -5% | 9% | -6%
- COc1ccc(CCN2C(=O)c3[nH]nc(-c4ccccc4O)c3C2c2ccc(O)c(OC)c2)cc1 (stereo unspecified)
→ nt | -12% | -9.2% | -29%[46.1 µM] | nt | ? | -3% | nt
- O=C(NCc1ccccc1)NC12CC3CC(CC(C3)C1)C2
→ 2% | -10% | nt | nt | -4% | nt | nt | 16%
- O=C(c1cccc2ccccc12)N1CCN(Cc2ccccc2F)CC1
→ 5% | -5% | nt | nt | -17% | nt | nt | -14%
- Cc1cc(Cl)ccc1C(=O)C1CCCN(C(=O)c2snnc2C)C1 (stereo unspecified)
→ -2% | -20% | nt | nt | -42% | nt | nt | 10%
- Brc1ccc(CN2CCN(c3ccccn3)CC2)s1
→ 16% | nt | 0.1% | 1% | -12% | 15% | -5% | 6%
- CCOC(=O)c1noc2nc(C)n(Cc3cccc(C#N)c3)c(=O)c12
→ nt | -16% | -1.3% | nt | nt | 2%[46.1 µM] | -7% | nt
- CCN1C(=O)[C@H]2[C@@H](c3ccc(C)cc3)N3C(=O)N(c4ccccc4)C(=O)[C@@]3(CC)[C@H]2C1=O
→ 9% | 38%[activator] | nt | nt | 5% | nt | nt | -9%
- CC(=O)N1CCC(N(C(=O)Nc2c(F)cccc2F)C(C)C)CC1
→ 2% | -6%&-16% | 0.7%&4.7% | nt | 4% | -1%[46.1 µM] | 15%&-10% | -2%
- CCC(CC)C(=O)Nc1cccc(-c2nc3ccccc3o2)c1
→ -4% | nt | -1.5% | -23% | 9% | -28% | ? | -11%
- COc1ccc(-n2c(O)c(C=Nc3ccccc3)c3ccccc3c2=O)cc1OC
→ 0% | -11% | nt | 4%[46.1 µM] | 5% | -1% | nt | -1%
- O=C(Cn1nnc(-c2cccs2)n1)N1CCc2ccccc2C1
→ -2% | 37%[activator] | -0.4% | 3% | -7% | 1% | -9% | -11%
- COc1ccc(NC(=O)CCS(=O)(=O)c2cccc3nonc23)c(OC)c1
→ 3% | -11% | -2.5% | 3%&3% | 0% | 0% | 2% | 5%
- COCCCN1CCc2[nH]c(=S)[nH]c(=O)c2C1
→ 4% | 10% | -0.7% | -4% | 4% | -3% | 13% | 4%
- CC(C)Nc1nc2c(c(=O)n(C)c(=O)n2C)n1C
→ 0% | -24% | nt | nt | 4% | nt | nt | 4%
- COc1ccc(C2=NOC(C(=O)NCc3cccs3)C2)cc1 (stereo unspecified)
→ 5% | 63%[activator] | 2.1% | -14% | -7% | ? | 0% | 10%
- O=C(OCc1nnc(-c2ccccc2)o1)c1cc(F)c(F)cc1Cl
→ -2% | 5% | nt | 0% | -5% | 10% | nt | 29%
- Cc1cccc(C(C)C)c1NS(=O)(=O)c1cn(C)nc1C
→ 8% | -15% | nt | -7%[46.1 µM] | 4% | 28%[46.1 µM] | nt | -11%
- Cc1ccc(-c2nnc(Nc3ccc(Cl)c(Cl)c3)c3ccccc23)cc1S(=O)(=O)N(C)C
→ nt | 36%[activator] | -2.8% | nt | nt | ? | 6.3µM* | nt
- O=C(Nc1cc(Cl)ccc1N1CCOCC1)c1ccc(=O)[nH]c1
→ 3% | -24% | nt | 4% | nt | 7% | nt | -9%
- CCC(C)C(=O)Nc1nc2c(s1)C(=O)CC(C)(C)C2 (stereo unspecified)
→ 16% | -4% | -0.3% | 29% | 0% | 24% | 8% | -1%
- O=C(NCCCN1CCCC1=O)C1CCN(S(=O)(=O)c2cccc(C(F)(F)F)c2)CC1
→ -2% | -19% | nt | ? | nt | 18% | nt | -2%
- COc1ccc(-n2nc(C(=O)Nc3cc(C)ccn3)c3c4ccccc4n(C)c3c2=O)cc1Cl
→ nt | 3% | 0.0% | -1%[46.1 µM] | nt | -1%[46.1 µM] | -2% | nt
- O=C(Nc1ccc(Cl)cc1)c1ccc2nsnc2c1
→ -3% | -3% | nt | ? | nt | ? | nt | ?
- O=C1c2ccccc2C(=O)N1CC(O)COc1ccc(Cl)cc1 (stereo unspecified)
→ 0% | 22% | nt | ? | -6% | 7%[46.1 µM] | nt | -6%
- COc1ccc(-n2nnnc2-c2cnc(N3CCCC3)nc2C(F)(F)F)cc1
→ -4% | ? | -5.2% | -9% | -25% | ? | 7% | 15%
- O=C(CCNc1cccc(C(F)(F)F)c1)c1ccco1
→ -16% | 4% | -2.0% | -3% | -27% | 12% | -4% | ?
- COc1cc(C(=O)NCCCNc2nc3c(C)cc(C)cc3cc2C#N)cc(OC)c1OC
→ 0% | -5% | nt | -23%[46.1 µM] | -5% | -14%[46.1 µM] | nt | -19%
- COc1ccc(NS(=O)(=O)c2cc(NC(=O)C3CCCO3)ccc2N2CCCCC2)cc1 (stereo unspecified)
→ -2% | 76%[activator] | nt | ? | nt | ? | nt | -7%
- C=CCn1c(O)c2ccc(C(=O)N=NC(=O)COc3ccccc3F)cc2c1O
→ -2% | 5% | nt | 6% | nt | -1% | nt | 5%
- COCCn1cnc2c(c1=O)c1nc3ccccc3nc1n2/N=C/c1ccco1
→ 3% | ? | nt | nt | 1% | nt | nt | -16%
- C=CCn1c(-c2cnn(-c3ccccc3)c2N)n[nH]c1=S
→ 0% | 4% | nt | ? | 4% | 10% | nt | 1%
- CCCc1cc(=O)oc2cc(OCC(=O)N3CCC(C(N)=O)CC3)ccc12
→ 1% | -19% | nt | nt | -9% | nt | nt | -15%
- CCc1cccc(C)c1NC(=O)Nc1csc2c1CCCC2
→ nt | -22% | -0.4% | 0%[46.1 µM] | nt | nt | -2% | nt
- COc1ccc(-c2cc(C(=O)Nc3cc(C)nn3-c3ccccc3)no2)cc1
→ -4% | 61%[activator] | 6.0% | 12% | -3% | 1% | ? | -17%
- CCOc1cc(C(=O)Nc2nnc(C)s2)cc(OCC)c1OCC
→ 22% | -24% | -0.8% | 1% | 18% | 1% | 12% | 8%
- COc1ccc2c(C)c(CC(=O)NCCc3ccccc3)c(=O)oc2c1OC
→ nt | -7% | -0.3% | 0%[46.1 µM] | nt | 9%[46.1 µM] | -7% | nt
- COC(=O)c1ccc(-c2csc(NC(=O)c3c(C)noc3C)n2)cc1
→ -2% | -21% | nt | -20%[46.1 µM] | nt | -29% | nt | 7%
- Cc1cc(Cl)n2c(nc3cc(F)c(F)cc32)c1C#N
→ -18% | 18µM* | nt | 13µM* | nt | ? | nt | ?
- COc1ccc(OC(C)C(=O)N2CC(C)OC(C)C2)cc1 (stereo unspecified)
→ 1% | nt | 1.5% | 13% | 13% | -1% | 13% | -6%
- CC(C)(C)CN1CCNC(=O)C1CC(=O)N1CCC(C(=O)N2CCOCC2)CC1 (stereo unspecified)
→ 0% | 17% | nt | 2%[46.1 µM] | 1% | 13% | nt | -2%
- CCOc1cc(C2CC(=O)NC3=C2C(=O)C(C(=O)OC)C(C)C3)cc(Cl)c1O (stereo unspecified)
→ 5% | -20% | 2.3% | ? | -4% | 1% | 1% | 1%
- COc1ccccc1NC(=O)CSc1nnc(-c2ccc(NC(C)=O)cc2)n1C
→ 5% | -8% | -0.3% | 11%[46.1 µM] | 7% | -7% | -7% | 7%
- COc1ccc(N2CCN(C(=O)CCS(=O)(=O)c3ccc4c(c3)NC(=O)CO4)CC2)cc1
→ 3% | 0% | nt | nt | -1% | nt | nt | -16%
- Cc1ccc(S(=O)(=O)NNC(=O)c2ccccc2-n2cccc2)cc1
→ 14% | 9% | nt | -26%[46.1 µM] | -8% | ? | nt | 5%
- Cc1ccc(CCNc2ncnc3onc(-c4ccc(F)cc4)c23)cc1
→ nt | -11% | -0.7% | nt | nt | -5%[46.1 µM] | 13% | nt

# Compound profiles, as listed above:
# `Cc1ccc(CCNc2ncnc3onc(-c4ccc(F)cc4)c23)cc1` as listed: SARS PLP yeast: nt; 2A StopGo: -11%; Cruzain Triton: -0.7%; MARV entry inh: nt; NS1 inh: nt; LASV entry inh: -5%[46.1 µM]; Cruzain inh noDet: 13%; RE007 growth inh: nt
# `COc1ccc(OC(C)C(=O)N2CC(C)OC(C)C2)cc1` (stereo unspecified) as listed: SARS PLP yeast: 1%; 2A StopGo: nt; Cruzain Triton: 1.5%; MARV entry inh: 13%; NS1 inh: 13%; LASV entry inh: -1%; Cruzain inh noDet: 13%; RE007 growth inh: -6%
